# PABP FP inh: PABP poly(A) RNA binding inhibitors, primary screen, biochemical, fluorescence polarization, uHTS. inhibition, % at 35 µM. hit rate 1% among 290,000. Polyadenylate-binding protein 1 (Homo sapiens), P11940;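 active = 50% or more with normal probe brightness, or confirmed in later tests; inconclusive = above 50% with abnormal brightness, or retests that disagree; inactive = below 50% or failed in later tests; about a fifth of its hits are not listed in these tables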;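 note: calls also rest on retests at 20 µM and on dose response follow-up; controls were probe without protein and protein plus probe with vehicle; some compounds called inactive have numbers as strong as hits; many hits fall short of the cut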
# Target sequence (P11940 whole entry, looked up): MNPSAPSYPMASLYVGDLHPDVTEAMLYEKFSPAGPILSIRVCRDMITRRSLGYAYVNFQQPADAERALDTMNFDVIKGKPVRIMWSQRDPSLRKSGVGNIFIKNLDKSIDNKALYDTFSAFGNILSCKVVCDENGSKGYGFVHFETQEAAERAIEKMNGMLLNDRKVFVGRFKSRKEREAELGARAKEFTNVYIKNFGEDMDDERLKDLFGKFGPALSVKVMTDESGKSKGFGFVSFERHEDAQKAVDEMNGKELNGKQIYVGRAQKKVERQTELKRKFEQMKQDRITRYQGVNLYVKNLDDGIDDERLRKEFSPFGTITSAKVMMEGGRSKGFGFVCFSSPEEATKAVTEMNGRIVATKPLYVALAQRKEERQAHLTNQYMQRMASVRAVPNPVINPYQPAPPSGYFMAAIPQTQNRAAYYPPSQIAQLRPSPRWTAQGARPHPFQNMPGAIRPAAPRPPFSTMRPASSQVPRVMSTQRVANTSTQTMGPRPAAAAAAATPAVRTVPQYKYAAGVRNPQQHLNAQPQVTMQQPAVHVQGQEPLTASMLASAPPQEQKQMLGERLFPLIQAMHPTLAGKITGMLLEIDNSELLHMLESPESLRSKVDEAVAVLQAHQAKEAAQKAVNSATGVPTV
# Rce1 inhib: yeast Rce1p protease inhibitors, primary screen, biochemical, fluorescence, cell-free homogeneous; yeast membranes, quenched prenylated peptide cleavage fluorescence; hit rate 0.27% among 290,000; calls only; CAAX prenyl protease 2 (Saccharomyces cerevisiae (strain ATCC 204508 / S288c)), Q03530;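 active = fall in fluorescence gain of 50% or more versus controls, with final raw signal at or below 3038400; inconclusive = same 50% fall but final raw signal above 3038400; inactive = fall in fluorescence gain under 50%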;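 note: plate controls were neutral control wells for no effect and wells lacking membranes for full effect; tested at 10 µM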
# Target sequence (Q03530 whole entry, looked up): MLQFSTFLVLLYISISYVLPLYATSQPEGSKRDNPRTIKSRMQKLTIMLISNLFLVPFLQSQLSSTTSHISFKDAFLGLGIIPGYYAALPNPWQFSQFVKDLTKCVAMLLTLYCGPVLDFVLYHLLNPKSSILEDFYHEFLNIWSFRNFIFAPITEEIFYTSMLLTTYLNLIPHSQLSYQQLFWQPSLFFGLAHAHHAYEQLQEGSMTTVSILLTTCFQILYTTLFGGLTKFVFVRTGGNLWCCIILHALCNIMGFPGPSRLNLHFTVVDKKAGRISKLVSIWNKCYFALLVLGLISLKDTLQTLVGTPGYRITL
# MT1-MMP act inh: blockers of MT1-MMP proenzyme processing, primary screen, HT1080 RFP-PRO-GFP cells, GFP/RFP fluorescence; GFP/RFP ratio fluorescence, overnight; percent of plate control window, DMSO zero; Matrix metalloproteinase-14 (Homo sapiens), P50281; AID 651647, 2012; hit rate 0.061% among 360,000; GFP/RFP ratio change, % at 20 µM;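 active = GFP/RFP ratio change of at least 30% with cell ATP level not reduced by more than half and red fluorescence within 50% of control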; note: strong numbers were not always called active
#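 Material – HT1080 RFP-PRO-GFP cells · Control set – DMSO wells and RFP-L50D-GFP cells · Incubation – overnight cell settling, then overnight compound exposure, 37 °C, 5% CO2 · Compound dosing – single-point 20 µM compound, 1% DMSO · Read-out – GFP/RFP fluorescence ratio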
# Env fusion inh: inhibitors of HIV-1 Env-driven cell-cell fusion, primary screen, HeLa-JRFL effector, CEM21 target cells, luciferase | inhibition, % at 12.3 µM | hit rate 1.1% among 360,000;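 active = mean replicate inhibition score of at least 50 and every replicate individually at or above 50; inconclusive = only one of the two criteria met; inactive = mean below 50 and not all replicates reaching 50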;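 note: 0% = plate neutral controls and 100% = maraviroc near 300 nM; one replicate is shown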
# Yeast UUG start: modulators of yeast start codon fidelity, primary screen, whole organism, S. cerevisiae, single point, plate reader | S. cerevisiae UUG-firefly luciferase reporter, luminescence/redox ratio | activity score, % at 18.7 µM | AID 602363, 2012 | hit rate 0.13% among 350,000;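 active = replicate mean at a twofold rise or more, about +100% in these data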;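 note: firefly luciferase made from a UUG start codon reports start codon fidelity; reporter light over untreated wells divided by growth signal over untreated wells; some hits fall short of that in this replicate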
# CSC inhib: cancer stem cell viability inhibitors, primary screen, luminescence; cancer stem cell-like cells viability; inhibition, % at 7.5 µM; hit rate 1.1% among 300,000;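 active = mean at 75% or more and at least half the replicates too; inconclusive = mean and replicates disagree; tested in HMLE shEcad cells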;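 note: 0% = median of negative and 100% = median of positive control wells; the first replicate is given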
# eIF4H inh: human eIF4H binding inhibitors, primary screen, translation initiation inhibitor project, biochemical, uHTS, fluorescence polarization | eIF4H fluorescence polarization binding assay | AID 2012, 2009 | hit rate 0.94% among 290,000 | inhibition, % at 35 µM | Eukaryotic translation initiation factor 4H (Homo sapiens), Q15056;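 active = 50% or more with normal probe brightness, or confirmed in later tests; inconclusive = above 50% with abnormal brightness, or retests that disagree; inactive = below 50% or failed in later tests; about a fifth of its hits are not listed in these tables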;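 note: calls also rest on retests at 20 µM and on dose response follow-up; 0% = protein and probe with vehicle and 100% = probe without protein; strong numbers were not always called active; many hits fall short of the cut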
# eIF4H inh retest: recorded beside eIF4H inh, whose call it bears; inhibition, %; compound at 20 µM; confirmation average;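 mean of two retest wells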
# PABP FP inh retest: also measured in PABP FP inh; calls as there; inhibition, %; compound at 20 µM; confirmation repeats;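 mean of two retest wells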
# MT1-MMP act inh RFP: also measured in MT1-MMP act inh; calls as there; RFP signal change, %; measured here: RFP expression control read;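 0 = vehicle wells; hits needed this value within 50% of zero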
# * = called active by the depositor; i = inactive; ? = inconclusive; / = not tested or not shown; & = joins results of further samples.
SMILES,PABP FP inh,Rce1 inhib,MT1-MMP act inh,MT1-MMP act inh RFP,Env fusion inh,Yeast UUG start,CSC inhib,eIF4H inh,others
O=C(N/N=C/C(Cl)=C/c1ccccc1)c1ccc2c(c1)OCO2,/,/,3,-2,-30,-12,74,/,
CCOC(=O)N1CCN(C(=O)c2ccc(Cl)c(S(=O)(=O)Nc3ccccc3)c2)CC1,4,i,4,3,/,-29,-20,4,
Cc1sc2nc(CN(C(=O)NC3CCCCC3)C3CCCC3)[nH]c(=O)c2c1C,7,i,-2,-11,/,-18,-12,2,
O=C(Nc1ccc2c(c1)OCCO2)C1CCCN1C(=O)Nc1ccccc1 (stereo not given),-3,i,-5,-2,11,-6,/,-12,
CC(C)N(Cc1cc2ccccc2[nH]c1=O)C(=O)c1cccc([N+](=O)[O-])c1,3,i,-2,-2,-6,-10,-10,-3,
O=C(c1ccc(-n2cncn2)c([N+](=O)[O-])c1)N1CCN(S(=O)(=O)c2c(F)cccc2F)CC1,/,i,1,2,6,/,-9,/,
Cc1nn(-c2ccc(Cl)c(Cl)c2Cl)c(=O)c2ccccc12,-3,i,5,-3,/,5,5,-6,
CC(=O)N1N=C2c3ccccc3CCC2C1c1ccc(F)cc1 (stereo not given),-1,i,-4,-4,6,2,-5,-17,
COc1ccc(CC(=O)Nc2cc(C)ccn2)cc1,-4,i,-5,-1,3,-18,-15,-4,
COc1ccc(C#Cc2ccc(C3=CC(=O)CC(C)(C)C3=O)cc2)cc1,/,/,2,-6,0,-15,/,/,
CC(C)Cn1c2c(c(=O)[nH]c1=O)C(C(F)(F)F)(C(F)(F)F)N=C(CCC1CCCCC1)N2,-3,i,-5,-10,/,-15,7,7,
CCC12CN3CCN(CC(C3)/C1=N\NC(=O)c1ccc(C(C)(C)C)cc1)C2,-9,i,6,10,2,-22,-11,-1,
CC(=O)CCCC(NS(=O)(=O)CCC(Cl)(Cl)Cl)c1ccccc1 (stereo not given),13,i,4,6,-14,-14,-16,9,
CCC(=O)N1N=C(c2ccc(NS(C)(=O)=O)cc2)CC1c1ccc(C)cc1 (stereo not given),3,?,3,5,-38,12,-13,-8,
C[C@@H]1CN([C@@H](C)CO)S(=O)(=O)c2ccc(Br)cc2O[C@@H]1CN(C)S(=O)(=O)c1cn(C)cn1,/,/,1,1,-21,-17&4,/,/,
COc1nc2ccccc2nc1N1CCN(Cc2ccc3c(c2)OCO3)CC1,3,i,-3,-7,14,-6,/,-5,
CCOc1cc(S(=O)(=O)N2CCC(c3nc4ccccc4s3)CC2)c(OCC)cc1S(=O)(=O)N1CCCCC1,7,i,1,1,-39,-11,-17,0,
CCS(=O)(=O)N1CCC(C(=O)NCCc2ccccc2)CC1,-3,i,3,0,/,-4,-12,1,
Cc1ccccc1/C=N/NC(=O)Cc1ccc(Cl)cc1,4,i,-1,-4,-18,/,-7,17,
CC1(C)CC(=O)C2=C(C1)Oc1ncn3nc(-c4cccnc4)nc3c1C2c1ccccc1 (stereo not given),13,/,1,2,/,-4,/,2,
Nc1ccc(C(=O)N/N=C/c2c[nH]c3ccccc23)cc1,-5,i,6,3,2,-3,10,-8,
Cc1ccc(CSCCNC(=O)CN(c2ccccc2)S(C)(=O)=O)cc1,-6,i,4,3,4,/,-6,4,
Cc1ccc(NC(=O)Cn2cc(S(=O)(=O)c3ccc(C)cc3)c(=O)c3cc(F)ccc32)cc1,-2,i,5,1,-4,-14,-17,-6,
Cc1ccc2[nH]c3c(c2c1)CN(C)CC3,1,i,-1,9,/,-12,/,8,
CCS(=O)(=O)N1CCCC(C(=O)NCc2ccc(C)cc2)C1 (stereo not given),3,i,2,1,/,-12,-2,7,
Cc1nnc(NC(=O)C2COc3ccccc3O2)s1 (stereo not given),10,i,6,3,-37,-15,1,7,
CCOc1cc(/C=C2/NC(=S)NC2=O)ccc1OCc1ccc([N+](=O)[O-])cc1,-2,i,-4,-3,/,-9,32,-9,
COc1ccccc1N(CC(=O)N(C)Cc1ccccc1)S(=O)(=O)c1cccs1,/,/,-3,-3,/,-10,-9,/,
Cn1c(Cc2ccccc2)n[nH]c1=S,-4,i,-1,1,-16,/,0,-1,
O=C1CC(N2CCSCC2)C(=O)N1CCc1ccccc1 (stereo not given),-1,i,8,10,-43,-2,-16,-6,
CCCCCNC(=O)CCCCn1c(=O)[nH]c2cc(OCC)c(OCC)cc2c1=O,11,i,1,-6,-43,-4,12,-8,
COc1ccc(Cl)cc1Nc1nc(C)cc(C)c1C(N)=O,2,i,-4,0,/,-10,/,2,
C=C(C)CSc1nc(N)c2c(C)c(C)sc2n1,0,i,4,1,/,-12,-2,-9,
CC(C)(C)c1ccc(C(=O)N2CCN(S(=O)(=O)c3ccc(Br)s3)CC2)cc1,/,/,0,-4,4,-13,2,/,
CN(CC(=O)Nc1ccccc1Cl)C(=O)CSC(=S)N1CCCC1,/,i,5,-4,-26,20,/,/,
Cc1cc(C(=O)NCCCN(C)C)c2ccccc2n1,2,i,0,7,9,/,/,8,
Cc1ccc(C(=O)Nc2c(C)cc(-c3ccccc3)oc2=O)cc1,2,i,0,-1,-19,/,-8,-7,
O=C(CCC1COc2ccccc2O1)Nc1cccnc1 (stereo not given),-3,i,4,4,-24,-11,-3,-10,
CN(C)C(=O)COc1ccc(C(=O)/C=C/c2cccnc2)cc1,7,i,-1,-1,-6,-29,-6,8,
CCCCC(=O)Nc1ccc(C(=O)NCCN2CCOCC2)cc1,5,i,1,4,-26,-30,-21,-1,
O=C(CCn1cccc1)NCc1ccccc1,-9,i,-1,-2,/,-7,-8,-3,
Cc1csc(CNC(=O)C2CCC(=O)N(CCCc3ccccc3)C2)n1 (stereo not given),4,i,-2,-1,2,-24,/,0,
CCCN(CCC)CCCNC(=O)c1cn(CCOC)c(=O)c2c1c1ccccc1n2C,8,i,-1,0,-11,-7,-1,-10,
Cc1ccc(-n2ccc(=O)c(C(=O)Nc3ccc(S(=O)(=O)Nc4nccc(C)n4)cc3)n2)cc1,11,i,5,4,7,-22,-3,58,eIF4H inh retest=12;PABP FP inh retest=26
O=C1c2cc(S(=O)(=O)NCCCO)ccc2-c2ccc(S(=O)(=O)NCCCO)cc21,0,i,4,1,-73,-7,-6,-6,
CCOc1ccccc1CN1CCN(Cc2cccc3nonc23)CC1CCO (stereo not given),-3,i,-3,0,21,-11,-4,-7,
CCOC(=O)C1=C(C)NC(=S)NC1c1ccc(-c2ccc(Cl)cc2)o1 (stereo not given),-5,i,-4,-16,/,/,2,3,
Cc1cc(=O)oc2c(C)c(OCC(=O)N3CCC(C(=O)O)CC3)ccc12,-4,i,3,4,/,12,-12,-3,
COCCN(C(C)=O)c1nnc(-c2cnccn2)s1,-3,i,-1,0,-29,1,-15,5,
Cc1cc(C)cc(N(CC(=O)Nc2cccc(C)n2)S(=O)(=O)c2c(C)noc2C)c1,-10,i,-35,-23,-8,-11,6,-5,
CCOC(=O)c1c(CN(C)C)n(-c2ccccc2)c2cc(Br)c(OC)cc12,8,i,-4,-8,2,15,/,8,
CCOc1ccc(NC(=O)Nc2ccon2)cc1,-2,i,4,8,-68,-15,12,3,
CN1CCN(CCCNC(=O)c2cn(C)c3ccc(S(=O)(=O)N(C)C)cc3c2=O)CC1,-5,/,3,2,3,-3,-10,1,
CCOc1cc(C=O)cc(Cl)c1OCC(N)=O,7,i,0,-2,-7,/,13,5,
O=C(CCN1C(=O)c2cccc([N+](=O)[O-])c2C1=O)Nc1nccs1,17,i,6,6,-17,/,-2,-6,
Cc1cc(C(=O)NCc2ccco2)on1,7,i,1,0,9,-16,-2,6,
COc1cc2c(cc1OC)-c1cc(Nc3ccc(F)cc3)nc(=O)n1CC2,8,i,4,0,-11,/,5,4,
COc1ccc(NC2(c3ccc(Cl)cc3)C(=O)c3ccccc3C2=O)cc1,6,?,3,3,/,-7,-5,2,
Cc1ccc(SCC(=O)OCC(=O)N(C)CC(=O)Nc2ccccc2Cl)cc1,/,i,-3,-2,/,-11,/,/,
Cc1ccc(C)c(C(=O)CSc2nnc(C)s2)c1,-5,i,-1,-1,-23,/,/,4,
# (further entries)
SMILES,PABP FP inh,Rce1 inhib,MT1-MMP act inh,MT1-MMP act inh RFP,Env fusion inh,Yeast UUG start,CSC inhib,eIF4H inh,others
CCOc1ccccc1CNCCN1CCOCC1,3,i,5,0,18,-17,-5,0,
CCOC(=O)c1cc(C#N)c(Oc2cccc(C(F)(F)F)c2)nc1-c1ccccc1,-6,i,-7,-10,/,2,26,-12,
Cc1ccc(CNC(=O)CN2C(=O)COc3ccc(S(=O)(=O)N4CCCCC4)cc32)o1,/,i,-3,-3,3,-23,-20,/,
CCOC(=O)N1CCN(CCC(=O)Nc2ccc(Br)c(C)c2)CC1,-2,i,4,-10,-5,/,4,-4,
O=C(c1ccc(F)cc1)n1cc(C(=S)N2CCOCC2)c2ccccc21,6,i,-2,-4,-3,/,-10,-3,
COc1ccc(C=C2C(=O)OC(C)(C)OC2=O)cc1OC,6,i,5,3,46,-11,-4,8,

# The list is partial (hit frequency here may not be typical).
